# Assay outcomes deposited in PubChem BioAssay by National Center for Advancing Translational Sciences (NCATS).
# NS1 inh: qHTS Assay for Inhibitors of Influenza NS1 Protein Function. S. cerevisiae slowed by influenza A NS1, growth recovery by OD600. Potency, µM (series often up to 46.1 µM), for the others: at the top dose activity, positive = more growth. 0.4% of 270,000 active; active means well fitted rising curve with a large enough effect; inconclusive means small, poorly fitted or top-dose-only effect; inactive means no such curve, though single readings can be large or run the other way; further: nearly all actives have a fitted effect of over 50% in size
#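 Read-out: OD600 growth recovery of NS1-expressing budding yeast. Cells grown overnight at 30C in -URA glucose medium, washed, resuspended and diluted 1:100 in 2% galactose assay medium, pH 6.0. Same strain lacking NS1 served as positive control.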
# SARS PLpro yeast: qHTS of Yeast-based Assay for SARS-CoV PLP. S. cerevisiae expressing SARS-CoV PLpro, growth rescue; control for the full effect not named in the record. Potency, µM (highest dose often 32.9 µM), without a hit: top-dose activity, positive = growth rescue. 0.19% of 330,000 active; active means well fitted rising curve with a large enough effect; inconclusive means small, poorly fitted or top-dose-only effect; inactive means no such curve, though single readings can be large or run the other way; further: 0% is about no effect; nearly all actives have a fitted effect of over 55% in size; growth read by luminescence after 48 h
# Marburg entry inh: qHTS for inhibitors of binding or entry into cells for Marburg Virus | Potency, µM (doses to about 37.8 µM), inactives show at the highest dose activity change, negative = inhibition, most hits filed as inhibitors | Marburg virus pseudotyped entry inhibition, cell reporter; control for the full effect not named in the record; about a third of the inactives were read at about 46 µM | AID 540276, 2011 | 1.8% of 300,000 active; active = well fitted inhibition curve with a large enough effect; inconclusive = small, poorly fitted or top-dose-only effect, or effect the other way; inactive = flat fitted curve, though single readings scatter; tested in HEK293 cells; about a fifth of its hits are not listed in these tables; further: on the % scale 0 is the no-effect control and ±100 the full control effect; luciferase read-out
# StopGo reporter: High Throughput Screening for Foot and Mouth Disease Virus Antivirals; human cells with a luciferase reporter of 2A StopGo recoding; control for the full effect not named in the record; AID 1159524, 2015; 1.2% of 410,000 active; Potency, µM (highest dose often 57.9 µM), for inactives: at the highest dose signal change, negative = less light; active = well fitted falling curve with a large enough effect; inconclusive = small, poorly fitted or top-dose-only effect; inactive = no such curve, though single readings can be large or run the other way; tested in HEK293T cells; further: on the % scale 0 is the no-effect control and ±100 the full control effect; nearly all actives have a fitted effect of over 45% in size; luciferase light after 4 h
# RE007 growth inh: qHTS Assay for Inhibitors of the HIV-1 protein Vpr. Potency, µM (titrated, usually from 92.2 µM), for inactives: at the top dose activity change, negative = less growth. 0.21% of 360,000 active. S. pombe RE007 Vpr strain, BacTiter-Glo ATP luminescence, 24 h; control for the full effect not named in the record. AID 651644, 2012; active = well fitted falling curve with a large enough effect; inconclusive = small, poorly fitted or top-dose-only effect; inactive = no such curve, though single readings can be large or run the other way;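 further: on the % scale 0 is the no-effect control and ±100 the full control effect; nearly all actives have a fitted effect of over 50% in size; the assay follows cell death caused by Vpr and the record does not say whether a fall means rescue or toxicity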
#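 Fission yeast RE007 carrying one integrated HIV-1 vpr copy, seeded at OD 0.01 in PMG+AL medium with 23 nL pinned compound. Grown 24 h at 30 degrees; viability read by BacTiter-Glo luminescence after 5 min.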
# Lassa entry inh: qHTS for Inhibitors of binding or entry into cells for Lassa Virus; Lassa virus pseudotype entry inhibition, cell reporter; control for the full effect not named in the record; Potency, µM (doses to about 37.9 µM), for the others: at the highest dose activity change, negative = inhibition, actives largely listed as inhibitors; 1.2% of 300,000 active; active means well fitted inhibition curve with a large enough effect; inconclusive means small, poorly fitted or top-dose-only effect, or effect the other way; inactive means flat fitted curve, though single readings scatter; tested in HEK293 cells; further: on the % scale 0 is the no-effect control and ±100 the full control effect; nearly all actives have a fitted effect of over 50% in size; luciferase read-out
# Cruzain inh noDet: qHTS Assay for Promiscuous and Specific Inhibitors of Cruzain (without detergent); AID 1476, 2009; purified cruzain, Z-FR-AMC fluorescence, no detergent; Cruzipain (Trypanosoma cruzi), P25779; 2.3% of 200,000 active; Potency, µM, for the others: max response, negative = inhibition, usual class: inhibitors;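 further: plate controls were enzyme without inhibitor for no effect and buffer without enzyme for full effect; nearly all actives have a fitted effect of over 40% in size; top concentration of the series not given in the record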
# Target sequence (P25779 123-467 limits assumed): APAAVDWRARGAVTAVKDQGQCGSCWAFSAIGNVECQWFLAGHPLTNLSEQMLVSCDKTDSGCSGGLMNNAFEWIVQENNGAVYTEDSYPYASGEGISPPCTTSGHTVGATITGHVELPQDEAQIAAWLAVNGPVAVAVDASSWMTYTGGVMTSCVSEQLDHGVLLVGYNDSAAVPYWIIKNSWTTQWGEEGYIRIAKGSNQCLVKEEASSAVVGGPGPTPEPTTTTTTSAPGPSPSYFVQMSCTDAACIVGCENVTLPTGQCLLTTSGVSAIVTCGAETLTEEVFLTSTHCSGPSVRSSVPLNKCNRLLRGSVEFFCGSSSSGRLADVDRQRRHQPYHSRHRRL
#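 Purified cruzain at 1.5 nM, pre-incubated 15 min with compound at room temperature in 100 mM sodium acetate pH 5.5, 5 mM DTT, 0.00005% Triton X-100. Reaction started with 2 uM Z-FR-AMC; AMC fluorescence increase over 60 s gives rate.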
# Cruzain Triton: qHTS Assay for Promiscuous and Specific Inhibitors of Cruzain (with detergent) | purified cruzain, Z-FR-AMC fluorescence, 0.01% Triton | Potency, µM, for the others: max response, negative = inhibition, hits mostly inhibitors | 0.43% of 200,000 active;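 further: plate controls were neutral wells for no effect and buffer without enzyme for full effect; nearly all actives have a fitted effect of over 40% in size; top concentration of the series not given in the record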
#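 Compounds were screened in titration against cruzain (1.5 nM) with 0.01% Triton X-100 to counter colloidal aggregation. Activity was the AMC fluorescence increase over 60 s after adding 2 uM Z-FR-AMC at pH 5.5.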
# An asterisk follows results filed as active; ? = inconclusive; . = no result given; & = joins results of further samples; [ ] = dose if it differs, or a comment. Unless noted, the call rests on the fitted dose curve; in most records, active means well fitted curve in the direction sought with a large enough effect; inconclusive means small, poorly fitted or top-dose-only effect, or another doubt; inactive means no such curve, though single readings can be large; an effect the other way counts as inactive or inconclusive. Potency means the concentration at half of the fitted maximal effect. Outcome played no part in choosing rows, and some 4.7% of all compounds hit somewhere here.
canonical_smiles	Cruzain inh noDet	Lassa entry inh	RE007 growth inh	Cruzain Triton	NS1 inh	Marburg entry inh	StopGo reporter	SARS PLpro yeast
Cc1cc(C)c(OCC(=O)N/N=C/c2ccco2)c(C)c1	0%	-22%	33%	-3.1%	-65%	?	16%	-20%
Cn1cc(Br)c(C(=O)Nc2c(F)c(F)c(F)c(F)c2F)n1	2%	20%	-7%	0.3%	-2%	?	-14%	14%
CCN(C)Cc1c(C(=O)N2CCc3ccccc3C2)nc2ccc(Cl)cn12	.	.	4%	.	-6%	.	-15%	0%
Oc1ccccc1C(=S)N1CCCC1	.	.	-5%	.	-2%	.	-9%	9%
Cc1ccc(CNS(=O)(=O)c2cn(C)c(=O)n(C)c2=O)cc1	.	0%	-9%	.	3%	18%	-9%	2%
COc1ccc(CNC(=O)C2CCN(S(=O)(=O)c3ccc4c(c3)N(C(C)=O)CCO4)CC2)cc1	.	2%[46.1 µM]	13%	.	-9%	?	-10%	1%
CN1CCN(C(CNC(=O)C(=O)Nc2ccc(Cl)cc2)c2cccnc2)CC1 (stereo unspecified)	?	?	.	-13%	.	.	-24%	.
Cc1c(CCC(=O)O)c(=O)oc2cc(OCc3ccc(Br)cc3)ccc12	.	.	1%	.	-1%	.	2%	-2%
COc1ccc(CC(=O)N2CCc3cc(OC)c(OC)cc3C2C)c(OC)c1 (stereo unspecified)	.	-20%[46.1 µM]	5%	.	-2%	?	-17%	-1%
O=C1NC(=Nc2ccccc2Cl)S/C1=C\c1cccc([N+](=O)[O-])c1O	.	-19%[46.1 µM]	?	.	-51%	?	6%	-22%
CCOC(=O)C1=NOC2C(=O)N(c3ccc(Cl)cc3Cl)C(=O)C12 (stereo unspecified)	.	7%	2%	.	.	?	6%	0%
Cn1c(=O)c2c(nc(NCC3CCCO3)n2C)n(C)c1=O (stereo unspecified)	9%	-9%	-19%	-1.8%	-4%	-1%	-10%	3%
O=C(CCC(=O)N(c1cccc(F)c1)C(C(=O)NC1CCCC1)c1ccncc1)Nc1cccnc1 (stereo unspecified)	-4%	27%	2%	0.5%	-25%	-6%&-6%	-10%	-2%
Cc1cccc(CC2CC(=O)N(c3nc4ccccc4s3)C2=O)c1 (stereo unspecified)	.	-16%[46.1 µM]	137%	.	-3%	-19%[46.1 µM]	-13%	0%
CCOC(=O)c1c(N)c(C#N)nn1-c1ccccc1C(=O)OC	-2%	.	.	2.4%	6%	7%	.	1%
CCCCOc1ccc(C2c3c(oc4ccccc4c3=O)C(=O)N2c2nc(C)c(C(=O)OCC)s2)cc1OC (stereo unspecified)	5%	-13%[46.1 µM]	.	-1.9%	.	6%[46.1 µM]	-20%	.
CC(=O)/C=C/c1ccc2ccccc2n1	-5%	?	25µM*	-1.0%	-168%	?	?	-29%
CCOC(=O)c1ccsc1NC(=O)c1ccco1	.	.	-19%	.	0%	.	35%	-4%
CCOc1ccc2oc(C(=O)N3CC(C)OC(C)C3)c(C)c2c1 (stereo unspecified)	.	?	11%	.	-5%	-3%[46.1 µM]	10%	10%
Cc1[nH]c(=O)[nH]c(=O)c1S(=O)(=O)Nc1ccc(F)cc1Cl	.	?	6%	.	3%	-4%	-11%	0%
CC(=O)N1CCN=C1SCc1ccccc1F	4%	.	9%	2.7%	1.3µM*	.	-11%	2%
O=C(Nc1ccncc1)c1cc(S(=O)(=O)N2CCOCC2)ccc1Cl	.	8%	7%	.	.	14%	-20%	?
CCOC(=O)c1ccc2c(c1)N(Cc1cccc(OC)c1)C(=O)c1ccccc1S2(=O)=O	-14%	-25%[46.1 µM]	.	-3.6%	.	.	6%	.
N#CCCN(CCC#N)C(=O)c1ccc2c(c1)OCO2	5%	1%	-3%	-7.6%	-1%	13%	-14%	1%
CC(C)(CS(=O)(=O)[O-])NC(=O)CC[N+](C)(C)CCO	3%	3%	5%	5.5%	4%	2.8µM*	-16%	0%
Cc1ccc2c(c1)c(N1CCCC1=O)c(C(=O)Nc1ccc(F)cc1F)n2C	-7%	-7%[46.1 µM]	.	-5.1%	.	.	?	.
CN(C)c1ccc(P(=S)(N(C)C)N(C)C)cc1	-2%	4%	-16%	-1.5%	3%	2%	-17%	6%
O=C(Cc1cccc(C(F)(F)F)c1)NCc1ccc(Cl)cc1Cl	-1%	13%	1%	-12%	-4%	12%	1%	-21%
CCC(C)NC(=O)c1sc2ncccc2c1-n1c(C)ccc1C (stereo unspecified)	-3%	-19%[46.1 µM]	.	-2.6%	.	.	?	.
COc1ccc(C(C)=O)cc1CSc1nnc(Nc2ccccc2)s1	?	?	15%	-6.6%	-7%	18µM*	?	7%
COc1ccc(/C=N/NC(=O)c2cccnc2)cc1COc1ccc([N+](=O)[O-])cc1	.	?	4%	.	2%	?	28µM*	-2%
O=C(O)Cc1c[nH]c2ccc(O)cc12	3%	?	-2%[18.4 µM]	1.4%	26%	?	-13%	.
O=C1CCN(CCc2ccccc2)CCN1CCOc1ccccc1	.	.	1%	.	16%	.	2%	11%
CC(C(=O)Nc1ccc(C(=O)O)c(O)c1)N1C(=O)/C(=C\c2ccco2)SC1=S (stereo unspecified)	.	.	-7%	.	?	.	-7%	10%
Cc1onc(-c2ccccc2)c1C(=O)NNC(=O)c1ccccc1O	.	1%	9%	.	.	10%[46.1 µM]	17%	-2%
COc1cc(OC)cc(-c2n[nH]c(=S)n2-c2cc(OC)ccc2OC)c1	0%	12%	-11%	3.9%	-3%	19%	7%	?
CCC(C)C(=O)Nc1nnc(CCc2ccccc2)s1 (stereo unspecified)	.	-1%	14%	.	-29%	?	34%[activator]	1%
NC(=O)N=Nc1c(O)[nH]c2ccc([N+](=O)[O-])cc12	.	.	11%	.	-1%	.	-13%	0%
O=C(Nc1cccc2ccccc12)c1cnsn1	.	.	-6%	.	-3%	.	-1%	0%
NS(=O)(=O)c1cnccc1Nc1ccc(Cl)cc1	2%	8%	5%	-2.2%	16%	-6%	-16%	10%
S=C(CN1CCCC1=S)NCCc1ccccc1	.	11%[46.1 µM]	-23%	.	-66%	-1%[46.1 µM]	23%	-2%
Cc1cc(C)cc(NC(=O)c2ccc(CSc3nnc(C)s3)cc2)c1	?	-6%	-15%	-5.4%	12%	-21%	-22%	-1%
O=C(NCc1ccco1)C1CCCN(S(=O)(=O)Cc2ccccc2)C1 (stereo unspecified)	-1%	8%	3%	-0.8%	3%	3%	.	3%
CC1CCCN(c2ncnc3c2nnn3C)C1 (stereo unspecified)	-4%	10%[46.1 µM]	.	-1.8%	.	.	-14%	.
C=CCn1c(-c2csc(-c3ccc(Cl)cc3)n2)n[nH]c1=S	?	8%	11%	1.4%	-1%	5%	7%	-1%
CC1CN(Cc2c(O)ccc3c(=O)c(-c4ccccc4Cl)coc23)CC(C)O1 (stereo unspecified)	.	.	-12%	.	-2%	.	-3%	3%
O=C(Nc1c2c(nn1-c1ccccc1)CS(=O)(=O)C2)c1cc2ccccc2o1	.	1%	5%	.	5%	?	-18%	12%
CCCCCn1c(=O)c(C(=O)Nc2nc3ccccc3[nH]2)c(O)c2ccccc21	.	-4%	-11%	.	1%	-25%[46.1 µM]	-6%	1%
CN(C)C(=O)CCc1ccc2c3c([nH]c2c1)[C@]1(C)[C@@H](C(=O)N2CCOCC2)C[C@H](CC(=O)NCC24CC5CC(CC(C5)C2)C4)C(=O)N1CC3	.	.	-4%	.	.	-3%	-7%	8%
